Bioassay records (PubChem BioAssay)
RanGTP-Impb inh = inhibitors of RanGTP-importin-beta interaction, primary screen, biochemical, FRET, CFP-Ran, YFP-importin-beta, homogeneous | cell-free CFP-Ran/YFP-importin-beta FRET ratio | AID 2216 | hit rate 1.1% among 300,000 | inhibition, % (no concentration beside the values);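 active means most replicates above 15%; inconclusive means exactly half above 15%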;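 further: 0% = DMSO wells and 100% = Ran loaded with GDP instead of GTP; wells of about 40 µL received 100 nL stock; the first replicate is given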
AF4-AF9 inh = MLL-AF4/AF9 protein interaction inhibition; P42568; AlphaScreen, biotin-AF4 peptide binding to FLAG-AF9; inhibition, % at 10 µM; hit rate 0.47% among 350,000; AID 651704;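 active means every replicate reaching a set inhibition limit, whatever the replicate mean, cut at about 25% in these data; inconclusive means mean inhibition reaches that limit but some replicates miss it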;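 further: 0% = plate neutral control median and 100% = total signal loss; the record names both 10 and 1 µM as test concentration; the first replicate is given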
Target sequence (P42568 whole entry, looked up): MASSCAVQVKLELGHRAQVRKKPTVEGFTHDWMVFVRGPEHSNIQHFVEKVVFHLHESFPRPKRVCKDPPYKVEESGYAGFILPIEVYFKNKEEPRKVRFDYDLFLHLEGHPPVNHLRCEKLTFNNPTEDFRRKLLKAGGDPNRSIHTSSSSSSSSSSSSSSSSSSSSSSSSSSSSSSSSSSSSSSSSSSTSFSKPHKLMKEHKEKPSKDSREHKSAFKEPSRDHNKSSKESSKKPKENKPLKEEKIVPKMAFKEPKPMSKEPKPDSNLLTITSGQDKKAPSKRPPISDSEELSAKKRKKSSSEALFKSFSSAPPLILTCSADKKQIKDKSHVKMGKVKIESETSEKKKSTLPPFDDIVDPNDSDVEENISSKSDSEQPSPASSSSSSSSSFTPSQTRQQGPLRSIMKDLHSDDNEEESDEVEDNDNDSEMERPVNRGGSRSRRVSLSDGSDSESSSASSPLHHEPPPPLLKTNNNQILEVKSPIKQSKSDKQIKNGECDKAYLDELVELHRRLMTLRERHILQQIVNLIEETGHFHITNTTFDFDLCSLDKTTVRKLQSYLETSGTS
Calb FLC = C. albicans growth modulation with fluconazole; C. albicans CaCi-2 (fluconazole-resistant clinical isolate) + fluconazole, Alamar Blue growth, 48 h; growth inhibition, % (no concentration beside the values); hit rate 0.57% among 300,000; AID 1979;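 active means most replicates above 75%; inconclusive means exactly half above 75%; inactive means most below 75%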;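 further: all wells also contain fluconazole at 8 µg/ml as a sub-toxic cotreatment; 0% = median of DMSO wells and 100% = median of geldanamycin control wells; wells of about 8 µL received 7.5 nL stock; the first replicate is given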
LANA-H2B inh = blocks KSHV LANA binding to histone H2A/H2B. Q9QR71. cell-free LANA-H2A/H2B peptide, fluorescence polarization. inhibition, % (test concentration not listed). hit rate 0.6% among 320,000. AID 2629; in the data active means inhibition mostly above about 10%, no sharp cut-off; inactive means mostly below about 6.7%;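 further: stock transfer was 7.5 nL into about 10 µL; 0% = median of vehicle wells and 100% = median of positive control wells; one replicate is shown; the record names a cut of 25% in any replicate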
Vif A3G = inhibitors of Vif binding to APOBEC3G peptide, primary screen, biochemical, TR-FRET, GST-Vif 1-94, biotin-A3G peptide, dose response retest (AID 1117319) | one-dose inhibition, %; IC50 in µM for titrated hits | TR-FRET GST-Vif / biotin-A3G peptide binding; higher % means a stronger effect; test concentration not given here; strong numbers were not always called active | hit rate 0.57% among 260,000;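 active means above the screen mean plus three standard deviations and confirmed in dose response; inconclusive means results disagree or hit not tested in dose response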;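 further: Vif residues 1-94 fused to GST binding biotinylated APOBEC3G peptide 110-148; 0% = full assay without inhibitor and 100% = GST in place of GST-Vif; retest series ran down from 100 µM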
T cruzi inh = blocks replication of Trypanosoma cruzi | T. cruzi beta-gal in NIH3T3, luminescence, 90 h | inhibition, % (test concentration not listed) | hit rate 1.4% among 300,000 | AID 1885;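 active means mean inhibition across valid replicates above about 55%, limit read from the data; inconclusive means mean below that limit but half or more replicates reach it; inactive means mean below it, under half of replicates reach it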;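 further: signal also drops with host cell toxicity which is not excluded here; 0% = plate median of DMSO wells and 100% = zero luminescence signal; higher percent means less beta-gal luminescence so fewer parasites; stock transfer was 50 nL into about 50 µL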
Beta cell apopt = blocks beta cell apoptosis; INS-1E cytokine-induced death, ATP luminescence, 48 h; percent of positive-control rescue, neutral wells zero; protection from apoptosis, % (no concentration beside the values); hit rate 0.8% among 300,000;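 active means all replicates at 75% or more, or half of them and the mean; inconclusive means half reach 75% but not the mean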;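 further: 0% = cytokine-treated negative control wells and 100% = positive control rescue; higher means more ATP so stronger rescue from cytokine killing; wells of about 40 µL received 100 nL stock; the first replicate is given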
Bfl-1 A1 inh = inhibitors of the anti-apoptotic protein A1, read as caspase activation; caspase activation, % (no concentration beside the values); hit rate 0.066% among 330,000; MEF A1-2A-BIM cells, Caspase-Glo 3/7 luminescence, 3 h; percent of clofoctol response, vehicle zero;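 active means over half of replicate activation scores above 10%, or exactly half above 10 with the replicate mean above 10; inconclusive means replicate mean below 10 yet half the replicates above 10; inactive means over half of replicates below 10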;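 further: wells of about 30 µL received 50 nL stock; many hits fall short of the cut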
* marks the source's active call; other numbers are inactive results; ? = inconclusive; . = not tested or not shown; & = joins results of further samples.

SMILES	RanGTP-Impb inh	AF4-AF9 inh	Calb FLC	LANA-H2B inh	Vif A3G	T cruzi inh	Beta cell apopt	Bfl-1 A1 inh
COc1ccc(CC(=O)Nc2cccc(S(=O)(=O)N3CCCC3)c2)cc1OC	.	0.9	.	-408	-8%	.	-1	0.2
CC1=CC(c2ccc(Cl)cc2)n2nc(NS(=O)(=O)c3ccc(C)cc3)nc2N1 (stereo not given)	?	.	23	-4.5	6%	2	-1	0.1
COc1cccc2cc(C(=O)NCc3ccc(C)cc3)c(=O)oc12	-1.7	.	-6	-3.6	-29%	2	.	-0.3
O=C1C2ON(c3ccccc3)C(c3cccnc3)C2C(=O)N1c1ccccc1 (stereo not given)	-2.1	.	-4	0.4	-5%	-4	-1	0.1
COc1ccccc1C(=O)COC(=O)c1ccc(-n2cnnn2)cc1	3.7	-2.7	-11	-4.0	31%	4	3	?
CCCOC(=O)Nc1sc2c(c1C(=O)OCC)CCC2	-1.2	.	-3	-7.4	45%	26	2	0.7
CC(OC(=O)CCc1nc(=O)c2ccccc2n1C)C(=O)NCc1ccc2c(c1)OCO2 (stereo not given)	-0.8	-1.6	1	-3.9	-8%	1	-5	0.7
CCOC(=O)C1=C(C)NC(=S)NC1c1ccsc1 (stereo not given)	4.0	-1.4	-21	-2.2	1%	-4	-3	-0.1
CCC1CCCCN1C(=O)COC(=O)c1ccc(Br)o1 (stereo not given)	.	-0.4	.	-2.1	-1%	.	-5	0.0
CC(C)(C)c1cc(C(c2cccnc2)N2CCN(CCO)CC2)cc(C(C)(C)C)c1O (stereo not given)	-0.4	?	7	-2.0	3%	61*	9	25*
COc1cccc(/C=C/C(=O)OCC(=O)N(C)CC(=O)Nc2ccccc2Cl)c1OC	.	5.9	.	-4.2	-11%	.	-8	0.2
CCOC(=O)c1cnc(-n2cc(C)cn2)nc1Nc1ccccc1OCC	-0.2	.	99*	6.0	0%	31	15	0.5
COc1cc(C(=O)N2CCN(S(=O)(=O)c3cccs3)CC2)cc(OC)c1C	1.6	0.6	44	2.9	12%	-3	-11	-0.3
O=C1c2ccccc2C(=O)N1OCCOCCOCCON1C(=O)c2ccccc2C1=O	-1.4	.	4	-1.9	?	1	-7	0.5
CN(C)CCCOc1ccc(C(C)(C)c2ccccc2)cc1	?	.	22	-3.4	?	25	.	0.1
CCOC(=O)N1[C@@H]2C=C(C)[C@@H]2[C@@H]2[C@@H](C)C(=O)N21	0.2	.	-4	-1.7	12%	-4	-5	0.2
Cc1ccc(C(=O)N/C(=C\c2ccc(F)cc2)C(=O)NCCCn2ccnc2)cc1	-1.0	2.0	14	2.6	.	-9	5	-0.8
CN1C(=O)/C(=C/c2cn(CC(=O)N3CCCCC3)c3ccccc23)c2ccccc21	-7.3	.	12	4.4	-6%	18	0	0.3
Cc1occc1C(=O)Nc1nnc(-c2cccs2)s1	6.4	-1.6	-1	-1.3	2%	-12	-1	-2.9
CCCCCCN1C=CC=C/C1=C/C=C(C#N)C#N	-3.0	4.5	-2	10*	3%	12	8	-0.3
COc1ccc(NC(=O)NCCc2cccc(Cl)c2)cc1OC	4.6	-0.1	5	-3.1	2%	-6	-8	-0.4
Cc1cccc(NC(=O)CSc2c3c(nc4ccccc24)CCC3)n1	?	1.2	11	-3.8	.	10	-12	0.2
CCOC(=O)c1ccc(S(=O)(=O)N2CCNCC2)cc1	3.4	.	0	2.2	2%	-36	-7	0.4
Cc1cc(NS(=O)(=O)c2ccc(NC(=O)C(C)Oc3cccc(C)c3C)cc2)nc(C)n1 (stereo not given)	-2.8	-0.5	1	-1.5	.	5	-3	0.3
CCN1CCN(c2cc(C)c3cc(NC(=S)NCCCN4CCc5ccccc5C4)ccc3n2)CC1	4.0	?	-8	0.1	?	51	-10	0.3
O=C(CSCc1ccc(F)cc1)NCc1ccc2c(c1)OCO2	-3.1	-0.9	-36	0.2	-11%	-17	3	-0.4
CCc1ccccc1NC(=O)c1cc2sccc2n1C	-1.4	3.5	6	-4.0	-4%	-6	-5	-0.6
CCc1cc(C(=O)NNC(=S)NCC2CCCO2)cs1 (stereo not given)	3.9	.	8	3.0	6%	-13	-4	0.9
C=C[C@@H](C)N(Cc1ccc(OC)cc1)S(=O)(=O)N(Cc1ccccc1)[C@H](C=C)C(C)C	.	-9.1	.	2.7	.	.	15	2.3
NC(=O)C1CCN(C(=O)CCc2ccsc2)CC1	-2.3	-4.3	13	-2.7	.	-13	-1	0.8
CC1(C)C(=O)N(c2ccccc2)C(=O)c2ccccc21	1.8	-0.3	-2	5.5	.	6	.	-0.3
N#C/C(C(=O)Oc1ccccc1)=C1\C=CC=CN1	3.5	.	5	3.3	2%	-2	-5	-0.7
COc1ccc(/C=C/CN2CCCC(C(=O)c3cc(F)ccc3F)C2)cc1 (stereo not given)	-0.8	0.0	-38	-2.2	-1%	48	2	1.9
O=C1CCN(S(=O)(=O)c2ccc(Cl)cc2)CC1	-4.1	-0.4	-3	5.0	.	-12	-7	-0.4
COc1ccc(NC2=CC(=O)CC(C)(C)C2)cc1	?	0.6	-24	9.9	0%	21	.	0.7
Cc1c(Br)c(C(=O)NCc2cc3cc(Cl)ccc3[nH]2)nn1C	-0.5	-0.9	-6	-11	-8%	2	3	0.6
Cc1onc(C(=O)N2CCN(Cc3ccccc3)CC2)c1[N+](=O)[O-]	4.4	-1.8	36	-1.1	5%	-5	2	-0.6
COc1ccc(CN2CCN(C(C)C(=O)N3CCc4ccccc43)CC2)cc1OC (stereo not given)	4.3	3.5	2	0.7	.	45	8	0.7
O=C(CCCSc1nc2ccccc2[nH]1)NC(c1ccccc1)c1ccccc1	-2.0	-1.3	5	0.7	.	7	-4	0.1
c1ccc2c(c1)nc1n2CCS1	1.6	.	7	-1.4	1%	-12	-7	1.3
O=C(O)C1=C(C(=O)Nc2ccc(F)c(Cl)c2)CCCC1	?	.	6	-2.2	67%	-10	-14	-0.9
CC1CC(N(C(=O)c2ccccc2Cl)c2ccccc2)c2ccccc2N1 (stereo not given)	-1.7	.	-3	1.6	-4%	11	4	-1.8
c1csc(-c2cnc3n2CCCC3)c1	-2.8	.	-19	-0.3	.	-18	-6	-0.1
CCCc1cc(=O)[nH]c(SCC(=O)Nc2cc(S(=O)(=O)N3CCOCC3)ccc2Cl)n1	.	5.1	.	1.5	-1%	.	-8	2.5
CC(C)C1(C(C)C)OC(=O)c2ccccc21	-2.4	.	7	5.1	.	9	2	0.0
CC(C)c1ccc(CCNC(=O)CCNS(=O)(=O)c2ccc(Br)cc2)cc1	.	-1.4	.	-1.1	-6%	.	-2	-1.0
CC[C@@H]1CCCCc2ccccc2[C@@H](C(=O)C[C@@H](O)CC(C)=O)OC1=O	.	-13	.	-2.4	-2%	.	-13	0.4
Cc1cccc(NS(=O)(=O)Cc2ccccc2)c1C	3.5	-0.5	-180	6.0	.	2	-5	0.2
COCCNC(=O)CC(NS(=O)(=O)c1ccc(C)cc1)c1ccco1 (stereo not given)	3.8	.	1	3.8	-7%&1%	-12	4	1.0
C=C(C)Cn1c(=O)c2c(nc3n2CCCN3CCc2ccccc2)n(C)c1=O	1.6	2.8	50	3.9	.	-5	-2	-0.5

(listing goes on)
SMILES	RanGTP-Impb inh	AF4-AF9 inh	Calb FLC	LANA-H2B inh	Vif A3G	T cruzi inh	Beta cell apopt	Bfl-1 A1 inh
CCC(C)(C)NC(=O)C(c1cccnc1)N(CCOC)C(=O)Cn1nnc2ccccc21 (stereo not given)	-2.6	.	-7	.	-4%	2	.	.
CCN1C(=O)N[C@@H](CCc2ccccc2)C(C(=O)OC)=C1C	4.4	-14	40	2.9	.	-14	-4	0.9
COc1ccc(C2=CC(c3ccc(Cl)cc3)n3cnnc3N2)cc1OC (stereo not given)	-0.6	.	32	-0.9	65%	0	8	1.8
O=S(=O)(c1ccc2c(c1)OCCO2)N1CCC(n2cnc3cc(F)ccc32)CC1	4.3	.	0	-1.1	-1%	-4	-3	1.2
CC12CCC(=O)N1C(C(=O)Nc1nc3ccc(S(C)(=O)=O)cc3s1)CS2 (stereo not given)	-0.7	-3.8	2	-2.8	0%	-2	-3	2.0
O=C(NC1CC1)c1cc2cc3ccccc3nc2s1	?	-1.2	-6	2.6	.	-9	0	0.4
O=C1CCN(Cc2ccccc2)S(=O)(=O)c2ccccc21	2.7	2.4	-17	-2.2	.	2	-5	0.5
O=C(CNC(=O)Cc1ccccc1)N=Nc1c(O)n(Cc2ccc3c(c2)OCO3)c2ccccc12	8.5	-9.7	0	.	13%	22	.	.
O=S(=O)(NC1CCCc2ccccc21)c1cnc[nH]1 (stereo not given)	-2.2	.	0	-2.0	23%	-6	-8	2.9
Cc1cc(=O)oc2ccc(OC(=O)c3cccc(S(=O)(=O)N4CCOCC4)c3)cc12	-3.3	.	3	0.1	-4%	-3	-4	1.9
CC(=O)Nc1ccc(NC(=O)CSc2nnc(C)c(=O)[nH]2)cc1	4.0	-0.4	-6	2.1	11%	-12	-2	0.4
Cc1cc(C(=O)CN2C(=O)C(=O)N(Cc3ccccc3)C2=O)c(C)n1Cc1ccccc1	.	0.5	.	2.2	.	.	4	-0.5
COc1ccc(OC)c(NS(=O)(=O)c2ccc(NC(=O)C3COc4ccccc4O3)cc2)c1 (stereo not given)	-3.7	.	16	-12	3%	-11	-2	-0.9
O=C(CSc1nc(Cc2ccccc2)nc2ccccc12)c1ccc2c(c1)OCCO2	?	.	-11	8.2	-2%	37	10	-0.5
Clc1ccc(CSc2ncnc3nc[nH]c23)cc1	0.3	1.1	13	6.4	-2%	-32	-4	-0.5
Cc1ccc(S(=O)(=O)N2CCCCC2)cc1NC(=O)COC(=O)CNC(=O)c1cc(Cl)cc([N+](=O)[O-])c1	-3.1	2.4	1	0.8	30%	-11	-1	-0.1
Cc1ccc(NC(=O)C2CCCN2c2nn3c(=O)cc(C)nc3s2)cc1 (stereo not given)	-3.0	-3.0	1	-4.5	.	-9	2	2.6
C=CCN1C(=O)/C(=C/c2ccc(-c3ccc(F)cc3)o2)SC1=S	?	-1.1	3	0.2	.	7	-5	0.6
CCn1ncc([N+](=O)[O-])c1C(=O)N1CCc2ccccc2C1	-0.9	-7.2	1	2.6	-9%	2	-6	0.6
O=S(=O)(NC1CC1)c1ccc(S(=O)(=O)N2CCc3ccccc32)cc1	0.0	.	7	-5.2	18%	-15	-9	0.4
COc1ccc(NC(=O)CN(C)S(=O)(=O)c2ccccc2)cc1OC	-3.1	0.8	?	-2.4	9%	-5	4	1.7
Cc1ccccc1Cn1cnc2c(nnn2Cc2ccc(F)cc2)c1=O	0.6	.	-14	-5.9	8%	7	-1	-0.2
CCOn1c(=O)c(-c2cccc([N+](=O)[O-])c2)[n+]([O-])c2ccccc21	0.4	-0.2	-3	3.7	.	-4	-6	0.0
CC(C)(C)C(=O)C[n+]1cccc(C(N)=O)c1	-0.4	-6.4	-8	-0.1	-1%	1	0	0.4

Compounds were not picked by outcome, and some 4.3% of all compounds hit somewhere here.
